High-throughput results deposited in PubChem BioAssay by National Center for Advancing Translational Sciences (NCATS).
PINK1 expr mod: PINK1 expression modulation | PINK1 immunofluorescence, high-content cytometry, 24 h | 410,000 compounds, 0.2% hits | AID 624263 | Potency, µM (titrated, usually from 76.6 µM), for the others: at the highest dose activation (PINK1 increase), most hits filed as activators; active = well fitted activation curve with a large enough effect; inconclusive = small, poorly fitted or top-dose-only effect; inactive = flat fitted curve, though single readings scatter; cell line not stated here;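 note: % of control where 0% means no effect; nearly all actives have a fitted effect of over 65% in size; a mitochondrial uncoupler was the plate control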
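A stable cell line was treated with compounds at 5 concentrations for 24 hours, with CCCP as control. PINK1 levels and mitochondrial localization were measured by immunofluorescence with mitochondrial, cell and nuclear markers after fixation, read by laser-scanning cytometry.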
Numbers without * were called inactive; ? = inconclusive; & = joins results of further samples. Potency is the fitted concentration of half-maximal effect. A portion of the library (hit frequency here may not be typical).

mol	PINK1 expr mod
O=c1c(-c2ccc(F)cc2)nc2cnc(Nc3ccccc3)nc2n1C1CC1	-0.3%
CN1CCN(c2ncc3nc(-c4cccc(C#N)c4)c(=O)n(CCC#N)c3n2)CC1	-0.4%
COCCn1c(=O)c(-c2ccc(OC)cc2)nc2cnc(OC)nc21	0.2%
CN(C)CC(C)(O)c1ccc2c(c1)CN(Cc1cn(C)c3ccccc13)CCO2 (stereo not given)	-0.1%
CN(C)c1ncc2nc(-c3cc(F)cc(F)c3)c(=O)n(C)c2n1	4.9%
Cc1nc2cncnc2n(Cc2ccccc2)c1=O	-0.4%
COc1ccc(C(=O)NCc2nnc(SC)n2-c2ccccc2C)c(OC)c1OC	-0.2%
CCN1CCN(C(=O)c2sc3ncnc(NCC4CCCO4)c3c2C)CC1 (stereo not given)	-0.5%
Cc1nc(SCc2nc3ccc(F)cc3[nH]2)c2oc3ccccc3c2n1	1.6%
COc1ncc2nc(C)c(=O)n(-c3ccccc3)c2n1	0.6%
O=C(c1n[nH]c2c1CCCC2)N1CCOc2ccc(C(O)C3CCCCC3)cc2C1 (stereo not given)	1.7%
CN1CCN(c2nc(-c3ccc(N(C)C)cc3)nc3ccccc23)CC1	-1.2%
CN(C)c1ncc2nc(CCc3ccccc3)c(=O)n(CCc3ccccc3)c2n1	1.4%
CC(NC(=O)C1CCOCC1)c1nnc2n1CCN(Cc1ccc(F)cc1)CC2 (stereo not given)	1.1%
COc1cccc(-c2ccc3ncnc(NCc4ccccc4OC)c3c2)c1	0.3%
COc1ccc2[nH]cc(CCNc3ncnc4ccc(-c5ccc(C(=O)N(C)C)cc5)cc34)c2c1	1.4%
COc1ccc(NC(=O)N2CCCC3(CCN(S(C)(=O)=O)CC3)C2)cc1	0.4%
COc1ccc(OC)c(CN2CCOc3ccc(C(O)c4cccnc4)cc3C2)c1 (stereo not given)	0.4%
COc1ccccc1CNc1ncnc2sc(C(=O)N(C)C(C)C)c(C)c12	-0.1%
Cc1oc(-c2ccccc2NC(=O)c2cccnc2)nc1CNC(=O)c1ccc(N(C)C)cc1	-0.4%
O=c1c(CCc2ccccc2)nc2cnc(Oc3ccccc3)nc2n1C[C@H]1CCCO1	1.0%
Cc1c(C(=O)NC2CCCC2)sc2ncnc(NCCN(C)C)c12	-0.9%
C[C@@H]1OC(OC2C(OC3CC[C@@]4(C)C5CC=C6C7CC(C)(C)CC[C@@]7(C(=O)O)CCC6(C)C5(C)CCC4[C@]3(C)CO)OCC(O)C2O)C(O)C(O)C1O (stereo not given in full)	0.3%
O=C(NCc1cccnc1)c1cnn(-c2ncc3c(n2)-c2ccccc2CCC3)c1C1CC1	0.3%
CC(=O)N1CCC2(CC1)CN(c1ccccn1)C2	0.7%
COc1ccc(NC(=O)N2CCCC3(CCN(C(=O)c4csnn4)CC3)C2)cc1	-0.5%
CN(C)c1ncc2nc(CCc3ccccc3)c(=O)n(C[C@H]3CCCO3)c2n1	1.6%
COc1ccc(C(=O)N2CCC3(CC2)CCN(c2cccc(-c4ccccc4)c2)CC3)cc1	0.8%
COc1ccc2[nH]cc(CCNc3ncncc3-c3c(C)noc3C)c2c1	-0.8%
CC(CCC(=O)O)C1CCC2C3C(O)C[C@@H]4CC(O)CC[C@@]4(C)C3CC(O)[C@]12C (stereo not given in full)	1.1%
O=C(Oc1ccccc1)N1CCC2(CCCN(c3ccccc3)C2)CC1	0.9%
COCCn1c(=O)c(-c2ccc(OC)cc2)nc2cnc(N3CCN(C)CC3)nc21	-0.9%
CC(C)CN1CC2(CCN(C(=O)c3ccco3)CC2)C1	0.8%
Cc1noc(C)c1C(=O)N1CCC[C@@]2(CCN(c3ccccc3)C2)C1	-0.1%
COc1ccc(C(=O)N2CCC3(CCN(C)CC3)CC2)cc1	-0.3%
CC(C)C1=CC2=CC[C@@H]3[C@](C)(CO)CCC[C@]3(C)C2CC1 (stereo not given in full)	4.1%
Cc1nc2cnc(N(C)C)nc2n(-c2ccccc2)c1=O	-0.7%
COCC(=O)Nc1cc(C(=O)N2CCN(C)C(c3ccccc3)C2)c2c(c1)nc(-c1ccncc1)n2C (stereo not given)	-0.9%
COc1ccc(-c2cc(=O)c3ccccc3o2)cc1OC	1.9%
CN1CCN(c2ncc3nc(-c4cn(C)c5ccccc45)c(=O)n(CCc4ccccc4)c3n2)CC1	?
O=C(c1cc(C(F)(F)F)cc(C(F)(F)F)c1)N1CCC[C@@]2(CCN(Cc3ccncc3)C2)C1	-1.0%
COc1ccccc1C1CN(Cc2cccnc2)Cc2ccccc2O1 (stereo not given)	0.9%
Cc1noc(C)c1-c1cc(N2CCN(C)CC2)ncn1	0.7%
CNc1ncnc2ccc(-c3ccc4c(c3)OCO4)cc12	0.6%
COc1cccc(-c2nccc(NCc3cccs3)n2)c1	1.7%
N#Cc1cccc(NC(=O)N2CC3(CCN(C(=O)c4ccco4)CC3)C2)c1	-0.7%
CC(O)(COc1ccccc1)c1ccc2c(c1)CN(Cc1ccccn1)CCO2 (stereo not given)	-0.7%
C=Cc1ccc(C(=O)N2CCc3c(cnc(C)c3CNC(=O)c3ccc4c(c3)OCO4)C2)cc1	-0.7%
N#CCCn1c(=O)c(-c2ccc(F)cc2)nc2cnc(OCc3ccccc3)nc21	2.0%
CC(=O)N1CCN(c2ccc(NCc3cccc(C)c3)cc2)CC1	1.1%
CCn1nc(C)cc1C(=O)NCC1Cc2cccc(-c3cccnc3)c2O1 (stereo not given)	0.6%
CN(Cc1ccc2c(c1)CN(C(=O)c1cccc(N(C)C)c1)CCO2)Cc1cc(C2CC2)n[nH]1	-0.8%
COc1ccc(CN2CCCC(c3nc(C)ncc3-c3ccc(F)cc3)C2)c(OC)c1OC (stereo not given)	0.2%
c1csc(CNc2ncnc3ccc(-c4ccc5c(c4)OCO5)cc23)c1	1.6%&-1.1%
CC(=O)Nc1cc(C(=O)N2CC3(C)CC2CC(C)(C)C3)cc2ncn(CCc3ccccn3)c12 (stereo not given)	-0.3%
COc1ccc(C2OC3C(CO)OC(n4cnc5c(=O)[nH]c(N)nc54)C3O2)cc1 (stereo not given)	-0.1%

Next compounds
mol	PINK1 expr mod
CC(=O)N1CCC[C@H]1C(=O)NCC1Cc2cc(Cl)cc(-c3ccc4[nH]ccc4c3)c2O1 (stereo not given in full)	-0.5%
COc1ccc(OC)c(C(=O)N2CCOc3ccc(C(C)(O)CN(C)C)cc3C2)c1 (stereo not given)	-0.4%
COc1ccccc1-c1nnc2n1N=C(c1ccc(OC(F)F)c(OCC3CC3)c1)CS2	8.1%
COc1ccccc1CNc1ccnc(-c2cccc(NS(C)(=O)=O)c2)n1	-0.4%
COc1ccc(-c2nc3cnc(Nc4ccccc4)nc3n(C[C@H]3CCCO3)c2=O)cc1	10%
CN1CCN(c2cc(-c3ccccc3Cl)ncn2)CC1	-0.5%
CN(Cc1cccc2ncccc12)C(=O)c1cnn(-c2ncc3c(n2)-c2ccccc2CC3)c1C1CC1	0.3%
CC1=C(CCC(=O)O)c2cc3nc(cc4[nH]c(cc5[nH]c(cc1n2)c(C)c5C(C)O)c(C)c4C(C)O)C(C)=C3CCC(=O)O (stereo not given)	0.0%
CC(=O)c1ccccc1C(=O)NCC1Cc2cccc(-c3cccnc3)c2O1 (stereo not given)	0.7%
COC(=O)C1CCN(Cc2ccc3c(c2)CN(C(=O)C2CCCN(c4ccccn4)C2)CCO3)CC1 (stereo not given)	-0.5%
CC(=O)Nc1ccccc1-c1nc(CNC(=O)c2cc(C)ccc2C)c(C)o1	0.8%
Cc1cccc(CNc2ccnc(-c3cccnc3)n2)c1	5.6%
COc1cccc(Cn2c(=O)cnc3cnc(Nc4ccccc4)nc32)c1	11%
COc1ccc(-c2nc3cnc(OC)nc3n(C3CC3)c2=O)cc1	1.2%
Cn1nccc1C(=O)NCC1CCC2(CCN(Cc3ccc(-c4ccc(Cl)cc4)o3)CC2)O1 (stereo not given)	-1.0%
COc1ccc(CNc2ncnc3ccc(-c4ccccc4CN(C)C)cc23)c(OC)c1	-1.1%

Brought forward from above: three entries, followed by the next part.
mol	PINK1 expr mod
COc1ccc(-c2nc3cnc(OC)nc3n(C3CC3)c2=O)cc1	1.2%
Cn1nccc1C(=O)NCC1CCC2(CCN(Cc3ccc(-c4ccc(Cl)cc4)o3)CC2)O1 (stereo not given)	-1.0%
COc1ccc(CNc2ncnc3ccc(-c4ccccc4CN(C)C)cc23)c(OC)c1	-1.1%
COc1ccc(NC(=O)N2CCCC3(CCN(C(=O)c4cccn4C)CC3)C2)cc1	0.4%
CN1CCN(c2ncncc2-c2ccccc2Cl)CC1	-0.7%
COc1ccc(NC(=O)N2CCCC3(CCN(C(=O)c4cccc(F)c4)CC3)C2)cc1	-0.3%
CN1CCN(c2ncncc2-c2ccc(C(=O)N(C)C)cc2)CC1	0.2%
COc1ccc(-c2nc3cc(C)ccc3cc2CN(C(=O)c2ccc(C)s2)C2CC2)cc1OC	-0.7%
COc1cccc(Nc2ncc3ncc(=O)n(C)c3n2)c1	0.2%
Cc1nc(SCCc2nc3ccccc3[nH]2)c2oc3ccccc3c2n1	13%
CCC1CN(CC(=O)NCc2cc(C)n(C)n2)Cc2cc(OC)ccc2O1 (stereo not given)	-1.1%
COc1ccc(-n2c(=O)c(CCc3ccccc3)nc3cncnc32)cc1	0.2%
CN1CCN(c2ncc3nc(-c4ccc(F)cc4)c(=O)n(C4CC4)c3n2)CC1	-1.3%
CC(C)Cc1nc2cc(NS(=O)(=O)N(C)C)cc(C(=O)N3CCc4sccc4C3)c2n1C	0.2%
CC(O)(COc1ccccc1)c1ccc2c(c1)CN(C/C=C/c1ccco1)CCO2 (stereo not given)	-0.2%
CCc1cc(C(=O)NCC2Cc3cccc(-c4ccc(C(=O)OC)cn4)c3O2)no1 (stereo not given)	0.5%
O=c1c(-c2ccc(Cl)cc2)nc2cnc(N3CCOCC3)nc2n1Cc1ccc(F)cc1	5.6%
CN(C)c1ccc(-c2cncnc2NCc2cccs2)cc1	0.3%
Clc1ccc(-n2cccc2CN2CCc3nnc(Cc4ccccc4)n3CC2)nc1	0.4%

A different layout for part of the listing above.
CC(O)(COc1ccccc1)c1ccc2c(c1)CN(C/C=C/c1ccco1)CCO2 (stereo not given)
  PINK1 expr mod: -0.2%

CCc1cc(C(=O)NCC2Cc3cccc(-c4ccc(C(=O)OC)cn4)c3O2)no1 (stereo not given)
  PINK1 expr mod: 0.5%

O=c1c(-c2ccc(Cl)cc2)nc2cnc(N3CCOCC3)nc2n1Cc1ccc(F)cc1
  PINK1 expr mod: 5.6%

Additional structures follow:
mol	PINK1 expr mod
O=C(O)c1c2ccccc2cc2ccccc12	-0.2%
Cc1cnc(-n2ncc(C(=O)NCc3cccnc3)c2C)nc1-c1ccc(F)cc1	1.4%
O=C(c1cccc(F)c1)N1CCC2(CCCN(Cc3cc(C(F)(F)F)cc(C(F)(F)F)c3)C2)CC1	0.8%
CN(C)C(=O)c1ccc(-c2nc(N(C)Cc3ccco3)c3ccccc3n2)cc1	1.1%
Cc1ccc(-c2ccnc(-n3ncc(C(=O)N(C)Cc4cccc5ncccc45)c3C3CC3)n2)o1	0.5%
COc1ccc(-n2c(CNC(=O)c3cccc4ccccc34)nnc2SC)cc1	3.1%
COc1ccc(CN2CCOc3ccc(C(O)c4cccnc4)cc3C2)c(OC)c1OC (stereo not given)	0.1%
COc1ccc(-n2c(=O)c(-c3cccc(C#N)c3)nc3cnc(N4CCNCC4)nc32)cc1	0.1%
CN(C)C(=O)c1ccc(-c2cncnc2N2CCNCC2)cc1	0.1%
O=C(NCC1(N2CCOCC2)CCCC1)c1cnn(-c2nccc(-c3cccs3)n2)c1C1CC1	0.8%
COc1ccc(-n2c(=O)c(-c3ccc(Cl)cc3)nc3cnc(N4CCNCC4)nc32)cc1	-1.0%
CNc1ncnc2ccc(-c3ccccc3OC)cc12	-0.4%
COc1ccc(Oc2ncc3nc(C)c(=O)n(-c4ccc(OC)cc4)c3n2)cc1	-0.5%
FC(F)(F)c1ccccc1-c1nccc(NCc2cccs2)n1	-1.1%
CN(C)c1ccc(C(=O)OCC#CCSc2nnc(-c3cccc4ccccc34)o2)cc1	0.2%
CC(=O)c1ccc(F)c(-c2cc(C)cc3c2OC(CNC(=O)c2cccnc2)C3)c1 (stereo not given)	-0.2%
Cc1nc(C)c(CC(=O)N2CCOc3ccc(CN4CCN(c5ccccn5)CC4)cc3C2)s1	-0.5%
Cc1ccccc1-c1nc(N2CCN(C)CC2)c2ccccc2n1	-1.0%
COc1cccc(Cn2c(=O)c(-c3cc(F)cc(F)c3)nc3cnc(OC)nc32)c1	4.5%
CS(=O)(=O)N1CCC2(CC1)CN(c1ccc(-c3ccccc3)cc1)C2	1.7%
COc1ccc(CNc2nc(-c3ccc4c(c3)OCO4)nc3ccccc23)c(OC)c1	2.4%
Cc1ccccc1C(=O)NC(C)c1nnc2n1CCN(Cc1ccnc3ccccc13)CC2 (stereo not given)	0.6%
COc1cc(=O)n2c(c1C(=O)NCc1ccco1)CCN(Cc1cccc(C)n1)CC2	-0.7%
c1ccc(-c2cccc(N3CCC4(CCNCC4)CC3)c2)cc1	-1.1%
